INS promoter inh: TRM-6 insulin promoter activity inhibition | TRM-6 cells (human fetal islet line), insulin promoter-eGFP reporter, imaging; reporter expression induced with tamoxifen | inhibition, % at 2 µM | hit rate 0.9% among 130,000 | AID 1273;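 active = inhibition above the mean plus 3 SD, with well images judged a real hit on visual review, cut at about 60% in these data, passing the limit was not always enough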
HSV augment: HSV replication enhancement. hit rate 0.005% among 220,000. HSV replication augmentation in cells, fold increase. maximum fold increase;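 active = peak rise of 1.5-fold or more in the series; tested in PC3 cells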;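 note: first round at 10 µM; read as green reporter fluorescence; hits show the peak of a series up to 25 µM; 1 = signal of infected wells without compound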
RGS16-Gao HTS: modulates binding between human RGS16 and Galphao | O15492+P09471 | bead-based flow cytometry RGS16-Galphao binding, fluorescence; actives lie on both sides | binding response (% of control), % at 10 µM | hit rate 0.38% among 220,000 | AID 1441;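 active = below 25% or above 175%, edge rows of some plates excepted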;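 note: Galphao activated by GDP with aluminum fluoride before binding; 100% = wells without compound and 0% = beads without RGS; some results beyond the cut were filed as inactive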
GALR2 agonist: agonists of human galanin receptor 2 (GALR2); O43603; GALR2-expressing cells, agonist activation read-out; activation, %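 (tested at 5 µM)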; hit rate 0.48% among 140,000;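 active = above mean plus 3 SD of all compounds, about 5% in these data, not always enough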;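 note: 0% = vehicle buffer wells and 100% = reference agonist at full effect; tested in CHO reporter cells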
PKD1 kinase inh: PKD1 (human) kinase inhibition; hit rate 0.056% among 200,000; Q15139; PKD1 kinase fluorescence polarization assay; inhibition, %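 (about 10 µM by stock and volumes)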;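 active = inhibition of 50% or more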;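 note: controls were vehicle for no effect and a reference inhibitor for full effect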
Target sequence (Q15139 whole entry, looked up): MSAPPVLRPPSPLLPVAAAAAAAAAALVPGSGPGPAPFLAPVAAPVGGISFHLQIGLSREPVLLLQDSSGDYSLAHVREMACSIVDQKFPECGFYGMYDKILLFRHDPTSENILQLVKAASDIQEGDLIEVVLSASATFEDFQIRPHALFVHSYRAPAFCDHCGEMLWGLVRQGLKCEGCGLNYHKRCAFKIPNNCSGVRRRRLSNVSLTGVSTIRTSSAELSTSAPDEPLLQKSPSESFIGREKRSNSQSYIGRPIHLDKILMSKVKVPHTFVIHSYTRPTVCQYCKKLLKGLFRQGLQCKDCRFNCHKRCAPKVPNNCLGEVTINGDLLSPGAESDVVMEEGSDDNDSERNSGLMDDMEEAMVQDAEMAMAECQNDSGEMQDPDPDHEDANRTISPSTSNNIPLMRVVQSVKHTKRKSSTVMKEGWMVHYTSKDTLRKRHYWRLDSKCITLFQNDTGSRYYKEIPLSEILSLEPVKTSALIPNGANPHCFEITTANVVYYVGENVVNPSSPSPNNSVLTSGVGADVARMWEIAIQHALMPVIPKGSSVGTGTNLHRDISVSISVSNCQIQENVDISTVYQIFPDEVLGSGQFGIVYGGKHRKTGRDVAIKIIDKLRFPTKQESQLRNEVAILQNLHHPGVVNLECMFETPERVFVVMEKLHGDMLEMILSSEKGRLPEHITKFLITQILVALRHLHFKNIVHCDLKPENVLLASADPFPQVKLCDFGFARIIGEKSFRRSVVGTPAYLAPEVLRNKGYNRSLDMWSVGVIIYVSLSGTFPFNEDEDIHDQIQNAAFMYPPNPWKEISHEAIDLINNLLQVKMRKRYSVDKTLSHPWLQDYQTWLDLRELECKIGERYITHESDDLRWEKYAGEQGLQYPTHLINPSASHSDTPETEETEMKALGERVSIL
INS promoter inh cell count: also measured in INS promoter inh; calls as there; normalized cell count, %; measured here: cell count, toxicity; reference of the scale not given here;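 cells exposed to compound for 48 h; stained nuclei by imaging scaled within each plate; lower means fewer cells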
HSV augment primary fold: also measured in HSV augment; calls as there; fold increase; compound at 10 µM; measured here: primary screen fold increase 10 uM; tested in PC3 cells;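 GFP signal in the first replicate; 1 = infected wells without compound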
Active calls of the source: *; i = inactive; . = no result given.

Start of the data: the first two entries as a preview:
SMILES	INS promoter inh	INS promoter inh cell count	HSV augment	HSV augment primary fold	RGS16-Gao HTS	GALR2 agonist	PKD1 kinase inh
CC(C)(C)n1nnnc1C(c1cccnc1)N1CCN(C(=O)c2ccco2)CC1 (stereo unspecified)	67	122	i	0.86	110	-1.7	-7
CC(OC(=O)c1ccc(-c2ccc([N+](=O)[O-])cc2)o1)C(=O)NC(N)=O (stereo unspecified)	.	.	i	1	103	.	.

The list itself (from the top)
SMILES	INS promoter inh	INS promoter inh cell count	HSV augment	HSV augment primary fold	RGS16-Gao HTS	GALR2 agonist	PKD1 kinase inh
CC(C)(C)n1nnnc1C(c1cccnc1)N1CCN(C(=O)c2ccco2)CC1 (stereo unspecified)	67	122	i	0.86	110	-1.7	-7
CC(OC(=O)c1ccc(-c2ccc([N+](=O)[O-])cc2)o1)C(=O)NC(N)=O (stereo unspecified)	.	.	i	1	103	.	.
O=C(Cn1nnc(-c2ccccc2F)n1)Nc1cccc2ncccc12	7	60	i	1.2	101	0.7	-5
Nc1ccc(N2CCN(c3cccc(Cl)c3)CC2)cc1	38	135	i	0.73	93	-0.2	-3
CCOc1ccc(S(=O)(=O)N2Cc3ccccc3CC2C(=O)NCCCn2ccnc2)cc1 (stereo unspecified)	.	.	i	0.96	102	-0.1	1
CCOC(=O)N1CCN(c2ccc([N+](=O)[O-])cc2)CC1	-13	100	i	1	111	-1.3	5
CC1(C)CC(=O)C=C(NCCN2CCN(C(=O)Nc3ccc(Cl)cc3)CC2)C1	14	123	i	1	108	-2.8	8
CCn1c(N)nc2c1c(=O)n(C)c(=O)n2C	.	.	i	0.98	99	-0.6	-2
COc1cccc(-n2nc(C(=O)Nc3ccc4c(c3)OCO4)c3ccccc3c2=O)c1	-60	140	i	1	103	-2.3	-4
Cc1csc2cc(-c3cccc([N+](=O)[O-])c3)c(-c3cccc([N+](=O)[O-])c3)c[n+]12	-18	85	i	1.1	105	-0.6	-9
COc1cccc(-n2c(CCn3nc(C)c([N+](=O)[O-])c3C)n[nH]c2=S)c1	-27	113	i	1	97	-1.4	1
C/C(=N\NC(=O)CNc1cccc(C(F)(F)F)c1)c1ccc(Br)cc1	.	.	i	0.91	104	1.4	-9
CC1CCCC(C(=O)O)N1C(=O)CCSSCCC(=O)N1C(C)CCCC1C(=O)O (stereo unspecified)	4	100	i	0.86	103	-3.0	2
Cc1cc(C(F)(F)F)n2nc(-c3cnn(C)c3C(F)(F)F)c(Cl)c2n1	-33	76	i	0.75	91	-0.5	-9
Cc1ccc(C(=O)N/C(=C\c2ccccc2)C(=O)NCC2CCCO2)cc1 (stereo unspecified)	.	.	i	1	98	-0.2	1
Nc1nc(-c2cccnc2)nn1C(=O)CCc1ccccc1	-72	104	i	0.75	.	-2.5	-12
COc1ccc(OC)c(C(=O)CSc2nc3cccnc3n2C)c1	10	101	i	0.77	98	-3.2	-10
COc1ccc(N(C(=O)c2cnccn2)C(C(=O)NC2CCCCC2)c2ccc(O)cc2)cc1 (stereo unspecified)	32	71	i	1	100	.	0
COc1ccc(-c2nnc(SCC(=O)NCc3cccs3)n2CC(C)C)cc1	-127	121	i	0.93	100	-1.1	-5
COc1ccccc1NC(=O)C1=C(C)Nc2nnnn2C1c1cccc(Br)c1 (stereo unspecified)	.	.	i	0.65	102	-0.8	-15
COc1ccc(CCNC(=O)c2ccc(-c3ccc([N+](=O)[O-])cc3)o2)cc1OC	.	.	i	1.1	104	0.4	-4
COc1cccc(C(=O)N2N=C(c3ccccc3)CC2(O)C(F)(F)F)c1 (stereo unspecified)	-7	123	i	1.1	110	0.7	-2
O=C(CN1CCN(Cc2ccc3c(c2)OCO3)CC1)c1c[nH]c2ccccc12	-14	154	i	0.74	100	-0.8	7
Cc1ccc(NC(=O)CN2C(=O)C(C)Oc3ccccc32)nc1 (stereo unspecified)	.	.	i	0.89	110	-0.3	5
CCCOC(=O)c1ccc(-c2c(C)noc2-c2ccc(OC)cc2O)o1	-4	57	i	0.77	104	-1.1	-9

6 records picked at random from the list so far, as already listed:
SMILES	INS promoter inh	INS promoter inh cell count	HSV augment	HSV augment primary fold	RGS16-Gao HTS	GALR2 agonist	PKD1 kinase inh
C/C(=N\NC(=O)CNc1cccc(C(F)(F)F)c1)c1ccc(Br)cc1	.	.	i	0.91	104	1.4	-9
CC1(C)CC(=O)C=C(NCCN2CCN(C(=O)Nc3ccc(Cl)cc3)CC2)C1	14	123	i	1	108	-2.8	8
O=C(Cn1nnc(-c2ccccc2F)n1)Nc1cccc2ncccc12	7	60	i	1.2	101	0.7	-5
COc1ccc(-c2nnc(SCC(=O)NCc3cccs3)n2CC(C)C)cc1	-127	121	i	0.93	100	-1.1	-5
COc1ccc(N(C(=O)c2cnccn2)C(C(=O)NC2CCCCC2)c2ccc(O)cc2)cc1 (stereo unspecified)	32	71	i	1	100	.	0
COc1cccc(-n2c(CCn3nc(C)c([N+](=O)[O-])c3C)n[nH]c2=S)c1	-27	113	i	1	97	-1.4	1

Next part
SMILES	INS promoter inh	INS promoter inh cell count	HSV augment	HSV augment primary fold	RGS16-Gao HTS	GALR2 agonist	PKD1 kinase inh
CCC(=O)NC(=S)Nc1ccc(NC(=O)c2ccc([N+](=O)[O-])cc2)cc1	10	89	i	1	99	-0.6	-5
Cc1sc2nc(SCc3ccccc3)n(Cc3ccco3)c(=O)c2c1C	-74	110	i	0.94	100	-2.0	2
Fc1cccc(Cc2noc(CN3CCCCC3c3ccccn3)n2)c1 (stereo unspecified)	19	83	i	0.88	106	.	-2
CCOC(=O)c1ccc(-c2ccc(/C=N/NC(=O)CN(c3ccccc3Cl)S(C)(=O)=O)o2)cc1	23	102	i	0.71	77	0.0	-14
COc1ccc(NC(=O)COC(=O)c2ccc(Br)o2)cc1OC	.	.	.	.	104	-0.9	4
Clc1ccc(CSc2nnc(-c3sccc3-n3cccc3)o2)cc1	-16	67	i	1.2	106	-3.9	-3
CCc1nccn1S(=O)(=O)c1ccc(OC)c(OC)c1	.	.	i	0.9	98	.	-7
Cc1ccc(CNC(=O)COc2ccc3c(c2)CCC3)cc1	-20	111	i	1	105	-2.8	0
COc1cccc(/C=N/NC(=O)c2cc(-c3cccn3C)n[nH]2)c1	.	.	i	0.86	96	-2.2	3
Cc1ccc(Nc2nc(CSc3nnc(-c4cccnc4)n3-c3ccccc3F)cs2)cc1	-32	89	i	1.1	134	0.6	-14
CS(=O)(=O)N1CCN(Cc2ccccc2C(F)(F)F)CC1	16	56	i	0.94	105	-0.9	8
COc1ccc(N2CCN(CCCNC(=O)C3CCC(CNc4nc(=S)[nH]c5ccccc45)CC3)CC2)cc1 (stereo unspecified)	.	.	i	0.97	105	.	-8
CC(CCc1ccc(O)cc1)NC1C2CC3CC(C2)CC1C3 (stereo unspecified)	.	.	i	0.99	115	0.3	-2
Cc1cc(C)cc(NS(=O)(=O)c2ccc(NC(=S)NC(=O)c3cccs3)cc2)c1	-25	49	i	1.1	102	-0.3	8
COc1ccc(/C=N/NC(=O)Cn2nc(C)c([N+](=O)[O-])c2C)cc1	25	137	i	1	98	-0.4	7
Cc1nc2c(-c3ccccc3)c(C)[nH]n2c(=O)c1Cc1ccccc1	12	106	i	0.83	92	.	-1
Cc1ccc(NC2CC(=O)N(Cc3ccccc3)C2=O)cc1 (stereo unspecified)	-25	137	i	0.9	100	-0.1	1
CCOC(=O)c1c(C)[nH]c(C(=O)C(C)OC(=O)c2oc3ccccc3c2COC)c1C (stereo unspecified)	25	38	i	0.91	101	-0.6	-5
CN(C)S(=O)(=O)c1cccc(-c2nnc(SCC(=O)NCCCCCC(=O)O)n2-c2ccc(F)cc2)c1	-28	133	i	0.99	87	.	-2
Cc1[nH]c2ccccc2c1Cc1nnc(SCC(=O)NCc2ccco2)o1	.	.	i	1.2	109	-0.5	-2
COc1cccc(CNC(=O)C2CCCN(c3nn4c(=O)cc(C)nc4s3)C2)c1OC (stereo unspecified)	-38	135	i	0.96	105	-2.2	-7
CCCCCCC(=O)N(O)C1CC(=O)N(c2ccc(Br)cc2)C1=O (stereo unspecified)	.	.	i	1	111	-1.8	-3
COCCCNC(=O)CCn1c(=O)c2ccccc2n(CC(=O)Nc2ccccc2C)c1=O	.	.	i	1	99	-0.6	0
C=CCc1ccccc1OCCNCc1ccccc1	.	.	i	0.88	100	.	-4
C#CCn1c(S(=O)(=O)Cc2ccc(OC)cc2)nc(-c2ccccc2)c1-c1ccccc1	0	125	i	0.96	103	1.5	8

Profiles from above. Screens in order: INS promoter inh | INS promoter inh cell count | HSV augment | HSV augment primary fold | RGS16-Gao HTS | GALR2 agonist | PKD1 kinase inh
Shown for Cc1ccc(Nc2nc(CSc3nnc(-c4cccnc4)n3-c3ccccc3F)cs2)cc1 : -32 | 89 | i | 1.1 | 134 | 0.6 | -14
Shown for COCCCNC(=O)CCn1c(=O)c2ccccc2n(CC(=O)Nc2ccccc2C)c1=O : . | . | i | 1 | 99 | -0.6 | 0
Shown for CCOC(=O)c1ccc(-c2ccc(/C=N/NC(=O)CN(c3ccccc3Cl)S(C)(=O)=O)o2)cc1 : 23 | 102 | i | 0.71 | 77 | 0.0 | -14
Shown for CN(C)S(=O)(=O)c1cccc(-c2nnc(SCC(=O)NCCCCCC(=O)O)n2-c2ccc(F)cc2)c1 : -28 | 133 | i | 0.99 | 87 | . | -2
Shown for Cc1cc(C)cc(NS(=O)(=O)c2ccc(NC(=S)NC(=O)c3cccs3)cc2)c1 : -25 | 49 | i | 1.1 | 102 | -0.3 | 8

Later entries:
SMILES	INS promoter inh	INS promoter inh cell count	HSV augment	HSV augment primary fold	RGS16-Gao HTS	GALR2 agonist	PKD1 kinase inh
CCOC(=O)c1cc2c(ccn2C)n1Cc1ccc(C#N)cc1	.	.	i	0.89	106	.	-6
CCOc1ccc2nc(NC(=O)CS(=O)(=O)c3ccccc3)sc2c1	10	61	i	0.89	103	0.3	-2
O=C1c2ccc3c4c(ccc(c24)C(=O)N1Cc1cccnc1)C(=O)N(Cc1cccnc1)C3=O	.	.	i	1	100	-2.6	0
COc1ccc(-n2c(-c3ccc(Br)cc3)c[n+]3c2CCCCC3)cc1	-15	142	i	0.91	98	.	-5
O=C(O)c1cc(N/N=C/c2ccc3c(c2)OCO3)ccc1Cl	.	.	i	1	99	.	-3
CCOc1ncccc1C(=O)N1CCN(c2cc(Cl)ccc2C)CC1	.	.	i	0.73	100	.	-4
CCOC(=O)N1CCN(C(=S)Nc2ccc(C)c(C)c2)CC1	53	195	i	0.86	100	-1.6	8
COc1ccccc1NC(=S)NCc1ccc2c(c1)OCO2	35	105	i	0.95	100	-1.6	-6
CCCOC(=O)c1c(N)sc(C(=O)OCC)c1C	42	121	.	.	108	0.9	10
O=Cc1ccc(OCc2cn3ccccc3n2)cc1	.	.	i	0.92	93	.	-2
O=c1c2c(nc3nc(Cc4ccccc4)[nH]n13)CCC2	92*	74*	i	0.81	152	-1.8	2
Oc1csc(Cc2nc(-c3ccc(-c4ccccc4)cc3)cs2)n1	.	.	i	0.73	105	0.2	4
O=C(COC(=O)c1ccc(Cl)nc1)Nc1ccccc1OC(F)F	.	.	i	1	111	.	-3
CCCNC(=S)N1CC2(C)CN(C(=O)C(=O)OC)CC(C)(C1)C2=O	-93	89	i	1	103	.	-7
O=C(/C=C/c1ccccc1)N1CCN(CCN2C(=O)c3cccc4cccc(c34)C2=O)CC1	34	116	i	0.96	101	0.6	-12
Cc1cccn2c(=O)c(C=Nc3ccc(Cl)cc3)c(NCCO)nc12	-105	87	i	0.83	103	-2.9	-8
COC(=O)c1ccc(C)c(NC(=O)c2ccc(Cl)c([N+](=O)[O-])c2)c1	5	121	i	0.99	106	-1.5	-4
Cc1cc(C)cc(NC(=O)CN2CCN(c3ncccn3)CC2)c1	12	114	i	0.8	91	-1.1	2
CC1(C)CC(=O)C(C=NCCN2CCN(C(=O)NC34CC5CC(CC(C5)C3)C4)CC2)=C(O)C1	0	108	i	0.95	78	-0.5	-9
O=C(NC1CCCCCC1)c1ccc2c(=O)n3c(nc2c1)CCCCC3	-14	33	i	1.1	101	-1.9	-6
COCc1cc(C)n(CC(=O)Nc2ccc(Cl)cc2Cl)c(=O)c1C#N	-7	82	i	0.92	96	-3.6	-3
O=C(Nc1ccccc1)/C(=C/c1ccc2c(c1)OCO2)NC(=O)c1ccco1	-52	97	i	0.98	103	-1.2	-8
COc1ccc(/C=N/NC(=O)c2ccoc2C)cc1COc1c(C)cccc1C	-24	144	i	0.92	100	-1.1	0
O=C(c1ccc(Cl)c(S(=O)(=O)N2CCCCCC2)c1)N1CCOCC1	67	128	i	0.97	100	.	-2
CCC(CO)n1c(SCc2cc([N+](=O)[O-])cc3c2OCOC3)nc2ccccc2c1=O (stereo unspecified)	56	114	i	0.83	102	1.0	-7
Cc1cc(-c2nnc(SCc3ccccn3)o2)no1	.	.	i	0.73	98	1.0	1
O=c1cc(N2CCc3ccccc32)[nH]c(=O)n1-c1ccc(Br)cc1	.	.	i	0.92	123	-1.6	-14

Screens from PubChem.
